ALR H2O2 inh: blocks human ALR sulfhydryl oxidase activity. inhibition, % (no concentration beside the values). AID 485317. 290,000 compounds, 3.8% hits. purified ALR, DTT oxidation, H2O2 HRP-luminol luminescence;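 active = mean and each replicate at 75% or more; inconclusive = only one of the two met; inactive = neither met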;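 also: stock transfer was 7.5 nL into about 7.5 µL; 0% = neutral wells and 100% = wells with inactivated enzyme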
Target sequence (P55789 whole entry, looked up): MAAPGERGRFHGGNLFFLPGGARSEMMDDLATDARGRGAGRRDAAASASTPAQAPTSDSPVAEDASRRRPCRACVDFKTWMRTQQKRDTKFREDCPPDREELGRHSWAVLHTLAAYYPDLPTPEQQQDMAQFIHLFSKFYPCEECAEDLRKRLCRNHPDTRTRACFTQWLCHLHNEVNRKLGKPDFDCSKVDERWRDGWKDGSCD
Bfl-1 A1 inh: inhibitors of the anti-apoptotic protein A1, read as caspase activation; MEF A1-2A-BIM cells, Caspase-Glo 3/7 luminescence, 3 h; percent of clofoctol response, vehicle zero; caspase activation, % (test concentration not listed); 330,000 compounds, 0.066% hits; AID 2462;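 active = over half of replicate activation scores above 10%, or exactly half above 10 with the replicate mean above 10; inconclusive = replicate mean below 10 yet half the replicates above 10; inactive = over half of replicates below 10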;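 also: wells of about 30 µL received 50 nL stock; many hits fall short of the cut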
Calb FLC: affects C. albicans growth with fluconazole | 300,000 compounds, 0.57% hits | growth inhibition, % (concentration not given with the values) | C. albicans CaCi-2 (fluconazole-resistant clinical isolate) + fluconazole, Alamar Blue growth, 48 h;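 active = most replicates above 75%; inconclusive = exactly half above 75%; inactive = most below 75%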;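 also: all wells also contain fluconazole at 8 µg/ml as a sub-toxic cotreatment; 0% = median of DMSO wells and 100% = median of geldanamycin control wells; wells of about 8 µL received 7.5 nL stock; the first replicate is given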
LANA-H2B inh: blocks KSHV LANA binding to histone H2A/H2B; AID 2629; cell-free LANA-H2A/H2B peptide, fluorescence polarization; inhibition, % (concentration not given with the values); 320,000 compounds, 0.6% hits; in the data active = inhibition mostly above about 10%, no sharp cut-off; inactive = mostly below about 6.7%;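 also: stock transfer was 7.5 nL into about 10 µL; 0% = median of vehicle wells and 100% = median of positive control wells; one replicate is shown; the record names a cut of 25% in any replicate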
Beta2AR agonist: activates human beta-2 adrenergic receptor causing internalization; P07550; Am2.2-beta2AR cells, FAP receptor internalization, flow cytometry; reference of the scale not given here; response, % (test concentration not listed); 340,000 compounds, 0.43% hits; AID 504454;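 active = response above a set limit, near 3 SD of response in nonfluorescent compounds, cut at about 42% in these data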;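 also: stock transfer was 100 nL into about 11 µL; a reference agonist was the positive control; negative values mostly stem from fluorescent compounds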
Target sequence (P07550 whole entry, looked up): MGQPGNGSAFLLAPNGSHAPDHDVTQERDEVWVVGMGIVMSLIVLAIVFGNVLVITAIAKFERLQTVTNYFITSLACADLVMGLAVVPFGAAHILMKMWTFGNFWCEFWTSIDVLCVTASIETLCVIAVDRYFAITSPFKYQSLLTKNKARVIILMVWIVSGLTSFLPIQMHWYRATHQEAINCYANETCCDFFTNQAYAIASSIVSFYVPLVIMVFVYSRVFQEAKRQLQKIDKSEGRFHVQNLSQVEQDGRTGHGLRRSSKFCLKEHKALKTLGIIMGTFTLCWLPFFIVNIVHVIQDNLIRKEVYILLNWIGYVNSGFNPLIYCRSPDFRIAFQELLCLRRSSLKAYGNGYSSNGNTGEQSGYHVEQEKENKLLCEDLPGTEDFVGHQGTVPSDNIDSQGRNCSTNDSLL
Beta cell apopt: beta cell apoptosis inhibition; INS-1E cytokine-induced death, ATP luminescence, 48 h; percent of positive-control rescue, neutral wells zero; protection from apoptosis, % (no concentration beside the values); 300,000 compounds, 0.8% hits; AID 435005;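 active = all replicates at 75% or more, or half of them and the mean; inconclusive = half reach 75% but not the mean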;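 also: 0% = cytokine-treated negative control wells and 100% = positive control rescue; higher means more ATP so stronger rescue from cytokine killing; wells of about 40 µL received 100 nL stock; the first replicate is given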
Ecoli rRNA inh: inhibits bacterial ribosomal RNA function over humanized ribosomes. E. coli WT GFP vs humanized-ribosome RFP mutants, fluorescence, 24 h; hits give low values; DMSO median 0, no signal -100. GFP signal change (wild-type ribosome), % (concentration not given with the values). 350,000 compounds, 1.6% hits;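 active = significant combined selectivity score with lowered wild-type GFP, culture density cut under 30%, mutant RFP and density less affected; inactive = any of these conditions unmet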; also: one replicate is shown; some compounds called inactive have numbers as strong as hits
T cruzi inh: T. cruzi replication inhibition | AID 1885 | 300,000 compounds, 1.4% hits | T. cruzi beta-gal in NIH3T3, luminescence, 90 h | inhibition, % (no concentration beside the values);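 active = mean inhibition across valid replicates above about 55%, limit read from the data; inconclusive = mean below that limit but half or more replicates reach it; inactive = mean below it, under half of replicates reach it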;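 also: signal also drops with host cell toxicity which is not excluded here; 0% = plate median of DMSO wells and 100% = zero luminescence signal; higher percent means less beta-gal luminescence so fewer parasites; stock transfer was 50 nL into about 50 µL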
Ecoli rRNA inh OD600: recorded beside Ecoli rRNA inh, whose call it bears; OD600 change, %; measured here: OD600 growth;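 optical density of the mix in the first replicate; 0 = DMSO median and -100 = no signal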
Ecoli rRNA inh RFP: second read-out of Ecoli rRNA inh, no call of its own (marks repeat the call); RFP signal change, %; measured here: RFP humanized mutant strains;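 first replicate; 0 = DMSO median and -100 = no signal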
An asterisk follows results filed as active; ? = inconclusive; nt = no result given. A portion of the library, so the mix of outcomes need not match the whole.

SMILES	ALR H2O2 inh	Bfl-1 A1 inh	Calb FLC	LANA-H2B inh	Beta2AR agonist	Beta cell apopt	Ecoli rRNA inh	Ecoli rRNA inh OD600	Ecoli rRNA inh RFP	T cruzi inh
O=C1OCCC1Sc1ncnc2sccc12 (stereo not drawn)	15	0.8	-4	1.8	1	-8	nt	nt	nt	-6
CN(CC(=O)N1CCCCC1)S(=O)(=O)c1cccc2cccnc12	-34	1.3	1	-3.9	9	nt	-4	3	2.3	-6
CC1CCCCN1C(=O)CCNS(=O)(=O)c1ccc2c(c1)c(=O)n(C)c(=O)n2C (stereo not drawn)	-2	-0.4	4	1.5	-5	4	5	7	-0.6	-1
CN(C)/N=C/c1cc([N+](=O)[O-])ccc1O	13	0.0	-3	3.8	-2	4	15	14	-1.9	-8
O=C(NCc1ccccc1)c1c[nH]c2ccccc2c1=O	-2	-0.3	-9	0.2	-11	-3	4	0	8.9	6
Cc1cccc(N(C(=O)c2snc(C(N)=O)c2N)C(C)C(=O)NCC2CCCO2)c1 (stereo not drawn)	1	0.2	-16	-2.1	-1	-2	-3	-6	-1.3	-6
CCOC(=O)c1cnc2ncnn2c1N	-7	0.4	-4	-0.5	-5	0	nt	nt	nt	-12
COc1cccc(NC(=O)CN2CCN(CC(=O)Nc3ccccc3Cl)CC2)c1	-2	-0.2	-4	0.0	-7	-5	-4	-12	3.9	6
O=C(Nc1nonc1-c1ccc(F)cc1)c1ccco1	-1	-0.6	3	9.9	1	-2	12	5	-1.7	-1
CCCOc1ccc(CCC(=O)O)cc1	-12	-0.6	25	-1.7	-2	-4	15	6	-2.4	-5
O=C(NC1CCCCC1)C(c1ccccn1)N(C(=O)c1csnn1)c1ccccc1 (stereo not drawn)	2	0.4	-2	5.2	-1	1	nt	nt	nt	5
O=C(CCCN1C(=O)/C(=C/c2cccs2)SC1=S)Nc1ccc(C(=O)O)cc1	2	-2.3	-1	1.7	-3	0	-1	0	2.5	9
COc1ccc(Cc2nnc(NC(=O)c3cc(OC)c(OC)c(OC)c3)s2)cc1OC	-14	0.4	27	8.3	8	-6	-11	-12	1.3	14
CCCCNC(=O)N1CCN(c2ccnc3cc(Cl)ccc23)CC1	-5	-0.1	10	2.4	-14	3	-23	-8	-18	-15
CSc1ccc(NC(=O)Nc2ccc(C(=O)NCC(=O)O)cc2)cc1	98*	0.4	3	3.1	6	-9	4	12	-3.2	-3
Cc1c(N2C(=O)SC(CC(=O)O)C2=O)c(=O)n(-c2ccccc2)n1C (stereo not drawn)	-1	0.8	nt	-0.6	-1	-9	nt	nt	nt	nt
O=C(Nc1cc(S(=O)(=O)N2CCOCC2)ccc1N1CCCC1)C1CC1	-6	1.4	23	-4.7	5	-1	10	5	3.7	-5
CCOc1ccc(NC(=O)COC(=O)c2ccc(S(=O)(=O)N3CCOCC3)cc2)cc1	-3	0.3	nt	2.9	6	-1	10	13	3.1	nt
Cc1cccc(-n2c(N)cc(=O)nc2SCC(=O)Nc2ccccc2)c1	98*	0.8	-7	-3.2	14	-4	nt	nt	nt	-1
CS(=O)(=O)N(CC(=O)Nc1cccc(Cl)c1Cl)c1ccccc1	15	-0.1	15	-2.8	10	0	nt	nt	nt	1
COc1ccc(-n2c(COc3ccc(Cl)cc3)nnc2SCc2ccc(C#N)cc2)cc1	-1	0.3	16	-2.2	-12	-8	nt	nt	nt	47
COc1ccc(NC(=O)c2ccc(S(=O)(=O)N3CCCC3)cc2)cc1OC	nt	0.4	nt	3.2	0	1	-4	-10	-4.3	nt
Cc1ccc(-c2csc(NC(=O)c3ccc(S(=O)(=O)N4CCc5ccccc54)cc3)n2)cc1	-21	1.1	-4	-2.0	7	nt	4	14	1.7	25
S=c1[nH]nc(COc2ccccc2)n1/N=C/c1ccc(Br)s1	95*	-0.4	-4	-1.1	6	-5	nt	nt	nt	-5
COc1ccc(S(=O)(=O)N(CC(=O)NC2CC2)Cc2ccccc2)cc1	-2	0.6	2	-0.6	4	-4	1	0	-0.8	-7
O=C(NC1CC1)C1=C[C@@H](c2ccc(C(F)(F)F)cc2)C[C@@H](OCCCCO)O1	-18	?	-5	-1.7	-5	-9	-6	-1	14	10
CCCC(=O)NNC(=O)c1c(O)c2ccccc2[nH]c1=O	-2	-0.6	-17	-3.8	2	nt	15	9	-11	-17
CC(Oc1ccccc1F)C(=O)NC1CCS(=O)(=O)C1 (stereo not drawn)	-1	0.6	-2	-9.4	-5	-6	13	12	1.6	-19
CCCC(=O)C1=C(O)C(C(=O)OC)C(C)(C)CC1=NCCCCCC(=O)O (stereo not drawn)	-5	0.1	-5	-1.4	1	-1	0	10	21	-4
CCN(CC)S(=O)(=O)c1ccc(Cl)c(C(=O)Nc2cc(C)nn2-c2ccccc2C(F)(F)F)c1	43	1.0	19	-2.5	nt	3	nt	nt	nt	13
O=C(NCCc1cccc(Cl)c1)c1ccc2c(c1)OCO2	-2	-4.5	nt	0.5	6	-21	-16	-14	-3.7	4
CCOc1ccc(NS(=O)(=O)c2cc(C(=O)NCCCN3CCCC3=O)ccc2C)cc1	-3	0.8	nt	nt	7	-2	9	10	0.0	nt
Clc1cccc(Cl)c1Cn1cc(Br)cn1	-4	0.3	-11	-3.7	-2	-9	-19	-16	-11	-8
O=C(COC(=O)C1CCN(S(=O)(=O)c2cccs2)CC1)c1ccc2c(c1)OCCO2	0	1.5	-4	3.0	9	-10	-4	16	-1.1	-3
CC(C)NC(=O)COc1ccc(Cl)cc1Cl	-2	-0.1	-15	0.7	-4	-5	nt	nt	nt	-14
N#Cc1ccc(C(=O)CSc2n[nH]c(=O)n2Cc2ccco2)cc1	61	-0.1	0	1.5	6	-1	-3	-5	0.4	-5
O=C(NCc1ccccc1)C(c1ccc(F)cc1)N(Cc1ccco1)C(=O)c1ccccn1 (stereo not drawn)	0	0.2	-6	0.2	12	1	nt	nt	nt	6
COc1ccccc1NC(=O)NNC(=O)COc1ccc2ccccc2c1	17	-0.7	-4	4.4	5	-8	-16	-14	-1.7	0
COC(=O)CCC(=O)N1CCCC(CO)(Cc2ccccc2)C1 (stereo not drawn)	nt	-0.5	5	-2.0	3	-3	8	9	-2.4	-3
CCN(CC)c1ccc(/C=N/Nc2nc(C)cc(C)n2)cc1	98*	0.9	-2	-3.8	19	70	10	5	22	-5
COc1ccc(NC(=O)CN2C(=O)CSC(C)C2=O)cc1 (stereo not drawn)	60	-0.1	-5	-1.0	2	-1	6	7	-1.1	-11
Cc1ccc(OCCSc2cc(C)nc(N)n2)cc1	-5	-1.5	-4	0.5	-4	4	nt	nt	nt	-9
COc1ccc(CCNc2nc(-c3cccnc3)cs2)cc1OC	-6	0.2	-15	1.6	6	-6	nt	nt	nt	17
O=C(NCCN1CCCCCC1)C1CCC(CNS(=O)(=O)c2cccc3cccnc23)CC1 (stereo not drawn)	1	0.3	9	-6.2	-13	nt	4	-1	-6.6	22
COc1ccc(-c2oc(=O)c3cc(OC)c(OC)cc3c2/C=C/c2ccc(OC(C)=O)cc2)cc1	1	-1.6	nt	3.0	18	3	6	9	-0.5	nt
Cc1ccc2c(c1)C1C[N+](C)(CC(=O)c3ccccc3)CCC1N2C(=O)c1ccccc1Cl (stereo not drawn)	nt	0.4	nt	-2.5	5	-2	-33*	-36*	20*	nt
Nc1c(C(=O)O)cnn1-c1ccccc1	1	0.6	21	1.4	9	-5	12	9	0.1	-7
CN(C(=O)COC(=O)COc1ccccc1Cc1ccccc1)c1ccccc1	1	0.3	-8	-3.4	-10	-3	-9	-15	-0.7	-7
Cc1cccc2c(=O)c(C(=O)N3CCCCCC3)c[nH]c12	nt	0.1	-14	4.3	-3	-2	nt	nt	nt	-3
O=C1c2ccccc2N2C(=O)c3ccccc3C2N1Cc1ccccc1 (stereo not drawn)	-3	-0.4	6	1.3	-5	5	-18	-14	-3.6	12
CCCSc1nc(N)c2c3c(sc2n1)CN(C)CC3	-102	-0.3	-7	-4.6	-8	1	nt	nt	nt	1
O=C(COC(=O)C1(c2ccc(F)cc2)CCCC1)N1CCc2ccccc21	-15	1.4	-2	1.0	0	8	nt	nt	nt	38
Cc1cc(Br)ccc1OCCCCNC(C)(C)C	-2	0.0	-4	-2.0	-1	-3	nt	nt	nt	22
O=C(c1cc2cc(Cl)ccc2[nH]1)N1CCN(Cc2ccc3c(c2)OCO3)CC1	-3	-1.1	1	-2.7	11	11	-52	-72	-9.7	30
Clc1ccc(-c2ccn[nH]2)cc1	-12	-0.5	-10	4.3	0	-2	3	-4	-3.2	-16
O=C1NC2(CCCCC2)CO1	-2	0.6	-4	0.0	-5	nt	22	14	1.5	-22
CNC(=S)NNC(=O)c1ccc(=O)n(Cc2cccc(C(F)(F)F)c2)c1	24	0.4	-7	-1.1	0	-2	4	3	1.6	-16
COC(=O)Nc1ccc(S(=O)(=O)N2CCN(C)CC2)cc1	-57	0.6	-1	2.2	-1	-1	nt	nt	nt	0
N#Cc1ccccc1NC(=O)CN1CCOCC1	nt	0.2	-6	2.5	-3	3	3	8	-0.2	-11

Whole records from above.
`COc1ccc(CCNc2nc(-c3cccnc3)cs2)cc1OC` in the list: ALR H2O2 inh = -6; Bfl-1 A1 inh = 0.2; Calb FLC = -15; LANA-H2B inh = 1.6; Beta2AR agonist = 6; Beta cell apopt = -6; Ecoli rRNA inh = nt; Ecoli rRNA inh OD600 = nt; Ecoli rRNA inh RFP = nt; T cruzi inh = 17
`O=C(COC(=O)C1(c2ccc(F)cc2)CCCC1)N1CCc2ccccc21` in the list: ALR H2O2 inh = -15; Bfl-1 A1 inh = 1.4; Calb FLC = -2; LANA-H2B inh = 1.0; Beta2AR agonist = 0; Beta cell apopt = 8; Ecoli rRNA inh = nt; Ecoli rRNA inh OD600 = nt; Ecoli rRNA inh RFP = nt; T cruzi inh = 38
`O=C1c2ccccc2N2C(=O)c3ccccc3C2N1Cc1ccccc1` (stereo not drawn) in the list: ALR H2O2 inh = -3; Bfl-1 A1 inh = -0.4; Calb FLC = 6; LANA-H2B inh = 1.3; Beta2AR agonist = -5; Beta cell apopt = 5; Ecoli rRNA inh = -18; Ecoli rRNA inh OD600 = -14; Ecoli rRNA inh RFP = -3.6; T cruzi inh = 12

3 structures already listed, sorted by number of heavy atoms, low to high.
SMILES	ALR H2O2 inh	Bfl-1 A1 inh	Calb FLC	LANA-H2B inh	Beta2AR agonist	Beta cell apopt	Ecoli rRNA inh	Ecoli rRNA inh OD600	Ecoli rRNA inh RFP	T cruzi inh
N#Cc1ccccc1NC(=O)CN1CCOCC1	nt	0.2	-6	2.5	-3	3	3	8	-0.2	-11
COc1ccc(CCNc2nc(-c3cccnc3)cs2)cc1OC	-6	0.2	-15	1.6	6	-6	nt	nt	nt	17
CNC(=S)NNC(=O)c1ccc(=O)n(Cc2cccc(C(F)(F)F)c2)c1	24	0.4	-7	-1.1	0	-2	4	3	1.6	-16

Compound activity as filed in PubChem BioAssay.
